Bioassay records deposited in PubChem BioAssay by National Center for Advancing Translational Sciences (NCATS).
AmpC inh no det: AmpC beta-lactamase inhibition, detergent-free assay; Potency, µM (doses to about 28.7 µM), inactives show at the highest dose activity change, negative = inhibition; AmpC nitrocefin hydrolysis, absorbance 480 nm, no detergent; potencies from a single point are estimates; P00811; AID 585; 71,000 tested, 1.8% active; active = falling curve, for most hits resting on a single point; inconclusive = weak or doubtful change; inactive = flat or rising curve; note: % of control where 0% means no effect; about half of the hits show no inhibition at the top dose; a quarter of the inactives give rising signals
Target sequence (P00811 whole entry, looked up): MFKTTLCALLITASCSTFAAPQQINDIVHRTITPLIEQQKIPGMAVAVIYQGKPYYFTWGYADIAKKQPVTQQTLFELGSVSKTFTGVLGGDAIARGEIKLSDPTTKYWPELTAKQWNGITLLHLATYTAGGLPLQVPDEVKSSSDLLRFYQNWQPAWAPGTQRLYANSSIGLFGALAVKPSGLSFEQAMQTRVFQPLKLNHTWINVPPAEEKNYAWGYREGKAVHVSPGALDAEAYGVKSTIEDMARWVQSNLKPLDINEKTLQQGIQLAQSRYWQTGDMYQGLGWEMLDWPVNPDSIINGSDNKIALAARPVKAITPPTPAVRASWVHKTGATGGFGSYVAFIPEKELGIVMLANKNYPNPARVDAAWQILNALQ
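Enzyme, pH 7.0 phosphate. Compound titrations were pre-incubated with AmpC for 15 min at room temperature before nitrocefin (stock 800 uM) addition; product formation was recorded at 480 nm every 20 s for 4 min.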
Numbers without * were called inactive; u = inconclusive; & = joins results of further samples; [ ] = another dose, or the depositor's remark. Potency is the fitted concentration of half-maximal effect. The list is partial; count on the stated rates, not on these rows.

SMILES	AmpC inh no det
O=P(CCC(F)(F)F)(CCC(F)(F)F)CCC(F)(F)F	1.7%
O=C(Nc1ccc(-c2noc(-c3cccs3)n2)cc1)c1cccnc1	102.0%
COc1ccccc1CN(CC(=O)NCc1ccco1)C(=O)CNS(=O)(=O)c1ccc(C)cc1	14.0%
CCc1c(C(=O)NCc2ccccc2Cl)[nH]c(C)c1C(C)=O	0.3%
Cn1cccc1CNC(=O)Nc1ccc(Cl)cc1	-10.4%
Brc1[nH]nc2ccccc12	-6.0%
Cc1ccc(C(c2nnnn2CC2CCCO2)N2CCN(C(=O)c3ccco3)CC2)cc1 (stereo not drawn)	87.3%
Cc1nc2cnc(N3CCNCC3)nc2n(Cc2ccc(F)cc2)c1=O	44.8%
Cn1cc(C2=C(c3ccc(Cl)cc3Cl)C(=O)NC2=O)c2ccccc21	-6.7%&-2.4%
NC(=S)NCCC[C@@H](N)C(=O)O	-4.8%
COCCCNC(=O)CN(c1ccc(OC)cc1)S(=O)(=O)c1ccc(NC(C)=O)cc1	89.9%
C/C(Cl)=C/Cn1c(SCC(C)C)nc2c1c(=O)[nH]c(=O)n2C	5.1%
CCCCNC(=O)CC1N=C2c3ccccc3N=C(SCC(=O)Nc3ccccc3OC)N2C1=O (stereo not drawn)	51.5%
O[C@@H]1[C@@H](OCc2ccccc2)OC[C@H](O)[C@@H]1O	-4.3%[5.75 µM]
COCCNC(=O)C1CCCN(c2nn3c(=O)cc(C)nc3s2)C1 (stereo not drawn)	0.8%

The list goes on; the last three above are carried over.
SMILES	AmpC inh no det
CCCCNC(=O)CC1N=C2c3ccccc3N=C(SCC(=O)Nc3ccccc3OC)N2C1=O (stereo not drawn)	51.5%
O[C@@H]1[C@@H](OCc2ccccc2)OC[C@H](O)[C@@H]1O	-4.3%[5.75 µM]
COCCNC(=O)C1CCCN(c2nn3c(=O)cc(C)nc3s2)C1 (stereo not drawn)	0.8%
Cc1ccc(-c2c(C)c(-c3ccc(F)cc3)nc(N)c2C#N)o1	-2.9%
CCn1c(SCCC(=O)O)nnc1-c1cccnc1	2.6%
COC(=O)[C@@]1(Cc2ccc(OC)cc2)[C@@H]2C(=CC(=O)[C@H]2CC(=O)C(=O)N(C)C)CN1C(=O)c1ccccc1	147.4%
CC(=O)Oc1ccc2c(c1)c(C(C)=O)c(C)n2C	-1.9%
CCn1c(-c2cccc(Cl)c2)n[nH]c1=S	-13.6%
CC(=O)c1c(C(C)=O)c(C)n(-c2ccc(C(=O)O)cc2)c1C	-6.9%
CC1CCCCN1Cc1nc2c(c(=O)n(C)c(=O)n2C)n1Cc1c(F)cccc1Cl (stereo not drawn)	38.0%
CCC(=O)Nc1ccc2oc(-c3ccccc3Br)nc2c1	18.2%
COc1ccc(-c2c3c(=O)n(C)c(=O)n(C)c3cn2Cc2ccccn2)cc1	-3.8%
Cc1cccc(N2CCN(C(=O)c3cc4c(=O)n(C)c5ccccc5c4n3C)CC2)c1C	3.98µM*[single pt active]
O=C(NCc1ccc(N2CCCC2=O)cc1)c1cnccn1	1.4%
COCCCNC(=O)c1ccccc1NS(C)(=O)=O	-2.7%
COc1ccc(C(=O)CSc2nnc(COc3ccc(C#N)cc3)n2-c2ccccc2)cc1	37.9%
C/C=C/CC#N	8.7%
Cc1cccc(N2CCN(C(=O)C3CCN(S(=O)(=O)c4cccc5nsnc45)CC3)CC2C)c1 (stereo not drawn)	119.2%
CCCOC(=O)C1=C(C)NC2=C(C(=O)CC(C)(C)C2)C1c1ccc(N(C)C)cc1 (stereo not drawn)	67.9%
Cc1cc2oc3c(c(=O)c2cc1C)C(c1ccc(F)cc1)N(CCCN1CCOCC1)C3=O (stereo not drawn)	107.7%
O=C(Cc1cccs1)Nc1ccccc1NC(=O)Cc1cccs1	-17.2%
CC(C)COC(=O)n1c(=O)oc2cc(S(=O)(=O)N3CCCCC3)ccc21	19.0%
O=C(CN1CCN(c2ccccn2)CC1)NCCc1ccccc1	26.5%
CCc1nnc(NC(=O)CSc2nnc(CSc3nc(C)cc(C)n3)o2)s1	6.1%
COc1ccc(-c2nnc(SCC(=O)N3CCN(c4ccccc4)CC3)o2)cc1OC	11.3%
CCOC(=O)C1CCN(C(=O)C2CCN(S(=O)(=O)CC)CC2)CC1	3.4%
COc1ccc(CN2CCNC(=O)C2CC(=O)O)c(OC)c1 (stereo not drawn)	14.4%
O=C(CN1CCN(C(c2ccccc2)c2ccccc2)CC1)NC(=O)NCc1ccco1	54.1%
CC(=O)SC(C)CC(=O)Nc1ccccc1 (stereo not drawn)	5.9%
Cn1c(=O)c2c(nc(N3CCNCC3)n2Cc2cccc3ccccc23)n(C)c1=O	25.9%
O=C(O)c1ccccc1OCCOc1ccccc1C(=O)O	1.9%
COc1ccc(NC(=O)CCN2CCN(S(=O)(=O)c3cc(Cl)ccc3OC)CC2)cc1	110.6%
O=C(O)CCN1Cc2ccccc2C1=O	-4.8%
O=C(c1ccc(N2C(=O)CCC2=O)cc1)N1CCN(c2ccccc2)CC1	14.5%
CN1CCCCc2c1nc1ccccc1c2N (tested in a mixture with another compound)	-21.1%
CCCNC(=O)c1nc2ncc(Br)cn2n1	-0.9%
COCC(=O)N1CCC2(CC1)CCN(C(=O)NC(C)C)CC2	1.2%
Cc1nc2ccc(Cl)cn2c1P(=S)(N1CCOCC1)N1CCOCC1	91.4%
CN(C)c1ncc2nc(-c3ccc(Cl)cc3)c(=O)n(-c3ccccc3)c2n1	5.2%
CCOC(=O)N(C)OC(=O)Nc1ccc(Cl)c(Cl)c1	-10.8%
Nc1nc2n(n1)C(c1cccc(Br)c1)CC(c1ccc(F)cc1)N2 (stereo not drawn)	42.2%
COc1cccc(Nc2ncc3nc(-c4ccccc4)c(=O)n(C[C@H]4CCCO4)c3n2)c1	21.5%
Cc1nc(NCc2ccccc2)c2nc(-c3ccccc3)n(CCCN(C)C)c2n1	84.7%
Cc1ccc(-c2nc3ccccc3c(=O)n2CCN2CCOCC2)cc1	29.1%
O=C(O)CC1CCS(=O)(=O)C1 (stereo not drawn)	-9.1%
Cc1cc(=O)c2n(Cc3ccc(Cl)cc3)nc[n+]2[nH]1	12.8%
COc1ccc(OC)c(N(CC(=O)NCCSc2ccccc2)S(C)(=O)=O)c1	84.0%
CN(C)c1ccc(CNC23CN4CN(CN(C4)C2)C3)cc1	-4.9%
Nc1cccc2cnccc12	-17.7%
Cc1ccc(C)c(N2C(=O)CC(N3CCN(Cc4ccc5c(c4)OCO5)CC3)C2=O)c1 (stereo not drawn)	111.9%
Cc1cc(C)c2c(n1)nn1c(C)c(CCC(=O)NCc3ccco3)c(C)nc21	94.4%
C=CCOc1ccccc1/C=c1\sc2nc(-c3oc4ccccc4c3C)nn2c1=O	-13.4%
Cc1ccc(C)c(N2CCN(C(=O)c3ccc(Cn4c(=O)[nH]c5ccccc5c4=O)cc3)CC2)c1	27.8%
C=C(C)CSc1nc2ncccc2[nH]1	-12.1%
O=C(Nc1cnc2ccccc2c1)c1cccnc1	3.98µM*[single pt active]
Cc1cc(C)nc(Nc2n[nH]c(COc3ccccc3)n2)n1	2.1%
Cn1c(CN2CCCC2)nc2cc(NS(=O)(=O)c3ccccc3)ccc21	-1.0%
O=C(Nc1ccc(N2CCCC2)c(Cl)c1)c1ccc(Br)o1	u
O=S(=O)(Nc1cccc2ncccc12)c1cccs1	-6.8%
O=c1c2cnn(-c3ccccc3)c2ncn1/N=C/c1ccncc1	27.4%
c1ccc(N2CCN(Cc3ccnc4ccccc34)CC2)cc1	17.7%
O=C(NCc1cccs1)c1cccc(N2CCCC2=O)c1	-9.4%
CNC(=O)C1CC(=O)N(Cc2ccc3c(c2)OCO3)C(=Nc2ccc(OC)cc2)S1 (stereo not drawn)	116.5%
(cont.)
SMILES	AmpC inh no det
O=C(NCC1CCCO1)C1CCN(CC2CCCCC2)CC1 (stereo not drawn)	-7.1%
CNC1=C(Br)C(=O)c2ccncc2C1=O	-4.9%
O=C(c1n[nH]c(=O)c2ccccc12)N1CCN(c2ccccc2Cl)CC1	9.7%
Cc1cc(C)cc(N(CC(=O)NCC2CCCO2)C(=O)CCC(=O)Nc2cc(C)on2)c1 (stereo not drawn)	59.2%
CC(C)c1[nH]nc2c1C(C(C)C)C(C#N)=C(N)O2 (stereo not drawn)	-7.3%
N#Cc1cccc(NC(=O)N2CCC3(CC2)CCN(C(=O)c2csnn2)CC3)c1	115.1%
[O-][n+]1onc2c1CCC1N(O)C(c3ccccc3)CC21O (stereo not drawn)	-6.9%
COC(=O)c1c(C)oc2ccc(NS(=O)(=O)c3cccs3)cc12	-16.4%
CSc1cccc(NS(=O)(=O)c2cccc3nsnc23)c1	-6.2%
O=C(Nc1ccc(S(=O)(=O)N2CCCC2)cc1)c1ccc(CN2CCOCC2)cc1	54.4%
COC(=O)COc1ccc(S(=O)(=O)NCCC2=CCCCC2)cc1	6.3%
CCC(Sc1nc2n[nH]c(C)c2c(=N)n1-c1cccc(Cl)c1)C(=O)NCCOC (stereo not drawn)	124.4%
Cc1cc(C(=O)CSC(C)c2nc3ccccc3c(=O)[nH]2)c(C)n1C (stereo not drawn)	6.7%
COc1ccc(-c2nnn(CC(=O)N(C3CCCC3)C(C)C(=O)NC3CCCC3)n2)cc1OC (stereo not drawn)	103.6%
O=C(CCCn1c(SCC(=O)NC2CCCCC2)nc2ccccc2c1=O)NCC1CCCO1 (stereo not drawn)	129.0%

Quoted at random: four compounds from above.
SMILES	AmpC inh no det
C/C=C/CC#N	8.7%
O=C(Nc1ccc(-c2noc(-c3cccs3)n2)cc1)c1cccnc1	102.0%
CC(=O)Oc1ccc2c(c1)c(C(C)=O)c(C)n2C	-1.9%
O=C(NCc1ccc(N2CCCC2=O)cc1)c1cnccn1	1.4%

Following part:
SMILES	AmpC inh no det
CCOc1ccc(CC2S/C(=N/c3ccccn3)NC2=O)cc1 (stereo not drawn)	-13.2%
CCOC(=O)N1CCN(c2ccc3nnnn3n2)CC1	15.2%
Cc1ccc(S(=O)(=O)Cn2nnnc2C(c2ccc(F)cc2)N2CCC(C(N)=O)CC2)cc1 (stereo not drawn)	98.8%
O=C(Nc1cc[c]([Sb](=[O])([OH])[OH])cc1)c1ccccc1	3.16µM*[single pt active]
COc1ccc(-c2nnc(SCc3ccccc3)n2N)cc1	57.4%
COc1ccc(C(c2sc3nc(C)nn3c2O)N2CCCCC2)cc1 (stereo not drawn)	-2.5%
CCN(CC)C(=O)c1sc(NC(=O)c2ccoc2C)c(C(=O)OC)c1C	29.8%
CC1(C)Cc2noc(N)c2C(C)(C)N1OC(=O)c1ccccc1	27.2%
CCCc1cc(=O)[nH]c(Nc2ccc(N3CCCCC3)cc2)n1	-21.3%
COc1ccc(CCNC(=O)c2cc(-c3ccccc3)on2)cc1OC	15.6%
COc1ccc(OC)c(C2/C(=C(\O)c3c(C)nc4ccccn34)C(=O)C(=O)N2CCCN(C)C)c1 (stereo not drawn)	-7.8%
Cc1o[nH]c(=O)c1CC[C@H](N)C(=O)O	9.9%
COc1cccc(C2CC(c3ccccc3OC)n3ncnc3N2)c1 (stereo not drawn)	3.98µM*[single pt active]
CCOC(=O)c1cc2c(ccn2C)n1CC(=O)N1CCN(c2ccccc2OC)CC1	111.7%
CCOC(=O)N1CCC(NC(=O)CCc2cn(C)c3ccccc23)CC1	37.8%
CCCn1cnc2c(c1=O)c1nc3ccccc3nc1n2Cc1ccccc1OC	96.0%
CC1(C)C(=O)C2(CCCC2)C(=O)OC1c1ccco1 (stereo not drawn)	6.1%
O=C(c1cnccn1)N1CCC2(CCCN(C(c3ccccc3)c3ccccc3)C2)CC1	138.0%
CCC(Sc1nc2ccccc2c(=O)n1CC1CCCO1)C(=O)NCc1cccnc1 (stereo not drawn)	18.9%
O=c1cc(O)cc(/C=C\c2ccc(O)c(O)c2)o1	6.31µM*
O=C(c1ccco1)N1CCC2(CCCN(C(c3ccccc3)c3ccccc3)C2)CC1	63.5%
Cc1ccccc1-n1c(=O)cc(N2CC(C)OC(C)C2)[nH]c1=O (stereo not drawn)	-3.7%
Cc1ccc(C2=NCCNC2=O)c(C)c1	-9.1%
O=C(NCCO)c1ccc(-c2nnc(N3CCOCC3)c3ccccc23)cc1	23.1%
CC(C)(C)NC(=O)NC(=O)Cn1cc(C(F)(F)F)ccc1=O	13.6%
COc1ccc(C)cc1NC(=O)CN1CCN(S(=O)(=O)c2ccc(F)cc2)CC1	47.0%
COC(=O)c1sc(S(=O)(=O)Nc2ccc3cn[nH]c3c2)c(C(=O)OC)c1C	u
COc1ccccc1NC(=O)N1CCCC1C(=O)Nc1nnc(C(C)C)s1 (stereo not drawn)	18.3%
O=C(CCCN1C(=O)CCC1=O)Nc1cccc(C(F)(F)F)c1	15.8%
CC(C)N(C)C1CCN(C(=O)Nc2ccc(Cl)c(Cl)c2)CC1	-3.7%

Ordered by number of heavy atoms (smallest number first): some entries from above.
SMILES	AmpC inh no det
CC1(C)C(=O)C2(CCCC2)C(=O)OC1c1ccco1 (stereo not drawn)	6.1%
Cc1ccccc1-n1c(=O)cc(N2CC(C)OC(C)C2)[nH]c1=O (stereo not drawn)	-3.7%
COc1ccccc1NC(=O)N1CCCC1C(=O)Nc1nnc(C(C)C)s1 (stereo not drawn)	18.3%
O=C(NCCO)c1ccc(-c2nnc(N3CCOCC3)c3ccccc23)cc1	23.1%
COc1ccc(C)cc1NC(=O)CN1CCN(S(=O)(=O)c2ccc(F)cc2)CC1	47.0%
O=C(c1ccco1)N1CCC2(CCCN(C(c3ccccc3)c3ccccc3)C2)CC1	63.5%
O=C(c1cnccn1)N1CCC2(CCCN(C(c3ccccc3)c3ccccc3)C2)CC1	138.0%

The list goes on:
SMILES	AmpC inh no det
N[C@H](C(=O)O)[C@H](O)C(=O)O	22.2%
CCc1ccc(CCC(=O)Nc2nnc(CC)s2)o1	-4.9%
COc1ccc(-c2cc(=O)n(-c3nc4ccccc4[nH]3)[nH]2)cc1	-20.7%
Cc1n[nH]c(=O)nc1NCc1ccco1	2.8%
COC(=O)c1ccccc1NC(=O)CN1CCC(n2nnc3cc(F)ccc32)CC1	32.2%
